# Ab BasE inh – BasE siderophore enzyme inhibitors, primary screen, biochemical, Acinetobacter baumannii ATCC 17978, fluorescence polarization. purified BasE, fluorescence polarization binding displacement. inhibition, % (no concentration beside the values). actives 0.1% (n = 84,000);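 active = both replicates above 25% with normal brightness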;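 note: 0% = negative plate control signal and 100% = positive plate control signal; stock transfer was 100 nL into about 30 µL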
# KSHV LANA nucl – inhibitors of KSHV LANA-nucleosome binding, primary screen, biochemical, fluorescence polarization, FITC-LANA1-23, chicken nucleosomes | z-score (test concentration not listed) | actives 0.3% (n = 51,000) | FITC-LANA1-23 / chicken nucleosome fluorescence polarization; stronger effect = lower value;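 active = both repeat wells score below -2 in polarization z-score versus plate sample wells, excluding overly bright wells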;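 note: 100 nL library stock added to about 30 µL; numbers are from one replicate; some results filed as inactive read as strong as hits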
#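 System – purified chicken nucleosomes with FITC-labelled LANA N-terminal peptide (1-23) · Amount – 240 nM purified chicken nucleosomes (480 nM peptide binding sites), final · Also added – 50 nM FITC-LANA1-23 probe · Medium – TEN-BT buffer, pH 7.5 · Incubation – compound with peptide–nucleosome mix 10–45 min at room temperature · Detection – fluorescence polarization, ex 480 nm, em 535 nm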
# * hit, by the source's call; nt = no result given; & = joins results of further samples.
no.	Compound	Ab BasE inh	KSHV LANA nucl
1	COc1ccc2c(c1)c(=O)oc1c(C)c(OCC(=O)O)ccc12	2.6	0.635
2	CCOC(=O)Nc1cc(Cl)ccc1Cl	-0.8	0.979
3	O=C(Cc1cc(F)cc(F)c1)Nc1ccc(F)cc1	1.3	nt
4	COCCN(Cc1cc2ccc(C)c(C)c2nc1Cl)C(=O)N1CCOCC1	0.9	-0.126
5	Cc1ccnc(S(=O)(=O)Cc2ccc(Cl)cc2)n1	nt	-1.15
6	O=C(O)CSC1=NCCCN1	4.5	0.274
7	Cc1c(Nc2ncccc2C(=O)O)cccc1C(F)(F)F	1.1	0.0355&-0.112
8	CC(=O)Nc1nc2ccc3ccccc3c2s1	-1.2	-0.102
9	CCC(=Nc1ccccc1N)c1c(O)n(Cc2ccccc2)c(=O)[nH]c1=O	0.9	0.982
10	Cc1ccc(OCC(O)CNC(=O)c2ccccc2C(=O)O)cc1 (stereo not given)	-4.0	1.34
11	Cc1ccc(S(=O)(=O)N(CC(=O)Nc2cccnc2)c2cc(C)cc(C)c2)cc1	4.9	nt
12	CN(C(=O)COC(=O)Cn1cnc2ccccc2c1=O)c1ccccc1	-0.1	nt
13	O=C(NC1CCCCC1)N1CCc2ccccc2C1	-2.5	0.577
14	Cc1cc(C)nc(SCC(=O)Nc2ncc3c(n2)CCCC3=O)n1	1.3	-2.19
15	CC(C)CCNC(=O)c1nn(-c2ccccc2)c(=O)c2ccccc12	0.2	nt
16	Cc1cc(CNC(=S)Nc2ccc(S(N)(=O)=O)cc2)nn1C	-7.5	2.41
17	Cc1cc(OC(=O)/C=C/c2ccc(F)cc2)cc(=O)o1	3.5	nt
18	CC[C@H]1OC(=O)[C@H](C)[C@@H](O[C@H]2C[C@@](C)(OC)[C@@H](O)[C@H](C)O2)[C@H](C)[C@@H](O[C@@H]2O[C@H](C)C[C@H](N(C)C)[C@H]2O)[C@](C)(O)C[C@@H](C)/C(=N\OCOCCOC)[C@H](C)[C@@H](O)[C@]1(C)O	1.5	0.122&-0.81
19	O=C1C2C3c4ccccc4C(c4ccccc43)C2C(=O)N1CCN1CCNCC1 (stereo not given)	-1.1	-0.277
20	O=C(OCC(=O)N1CCCC1=O)c1cccc(Oc2ccccc2)c1	2.0	nt
21	O=C(OCC(F)(F)C(F)F)c1ccc(O)cc1	-0.1	1.28
22	O=C(NC1CC1)c1ccc2c(c1)[nH]c(=S)n1c3ccccc3nc21	-0.4	1.52
23	O=C(Nc1ccc(Cl)cc1)C1COc2ccccc2O1 (stereo not given)	-1.0	0.419
24	CCn1c(=O)n(CC)c2cc(N3CCCC3)c(NC(=O)C(C)(C)C)cc21	0.9	0.875
25	CN(C)c1ccc(/C=N/NC(=O)N/N=C/c2ccc(N(C)C)cc2)cc1	1.8	0.327
26	CCCCOC1CCC(OCCCC)OC1 (stereo not given)	0.1	nt
27	O=C(NCCN1CCCC1)C(c1ccccc1)N1Cc2ccccc2C1=O (stereo not given)	-0.8	0.281
28	Cc1cc(C)c2c(=O)n(CC(=O)Nc3ccc(Br)c(C)c3)sc2n1	0.1	-0.201
29	O=C(CN1CCN(c2ccc(C(F)(F)F)cn2)CC1)c1ccccc1	-0.2	-0.0415
30	O=C(NC1CCCCCCC1)c1cc(=O)[nH]c2ccc(S(=O)(=O)N3CCCCC3)cc12	0.2	-1.11

# The final 2 entries of the part above are carried over, then new ones follow:
no.	Compound	Ab BasE inh	KSHV LANA nucl
29	O=C(CN1CCN(c2ccc(C(F)(F)F)cn2)CC1)c1ccccc1	-0.2	-0.0415
30	O=C(NC1CCCCCCC1)c1cc(=O)[nH]c2ccc(S(=O)(=O)N3CCCCC3)cc12	0.2	-1.11
31	CC1CCCC(C)N1C(=O)COC(=O)/C=C/c1cccs1 (stereo not given)	0.7	nt
32	N#CC(C#N)=c1s/c(=C\c2ccc(-c3ccc(S(=O)(=O)N4CCOCC4)cc3)o2)c(=O)n1Cc1ccco1	-27.9	nt
33	Cc1cc(C)c(N=c2scc(C)n2Cc2ccccc2)c(C)c1	-1.1	nt
34	COc1cc2ccncc2cc1OC	-3.9	nt
35	Cc1cc(Cl)ccc1OCCCC(=O)NC1CCSC1=O (stereo not given)	1.8	nt
36	CCOC(=O)N1CCN(Cc2cccc3ccccc23)CC1	-2.8	2.39
37	COC(=O)CCSCc1cn2ccsc2n1	2.4	nt
38	Cc1nc2cc(Cl)ccc2c(=O)n1-c1nc2ccccc2[nH]1	nt	0.788
39	CCc1nnc(NC(=O)c2sc(C)nc2C)s1	2.8	-0.159
40	COc1ccc(CCN(C)C(=O)c2ccc3c(=O)n4c(nc3c2)CCCCC4)cc1OC	1.5	nt
41	CC1=NN(C(=O)c2ccccc2)C(C)(NN(C)c2ccccc2)C1 (stereo not given)	2.3	-0.418
42	CN[C@H](CC(C)C)C(=O)N[C@H]1C(=O)N[C@@H](CC(N)=O)C(=O)N[C@H]2C(=O)N[C@H]3C(=O)N[C@H](C(=O)N[C@H](C(=O)O)c4cc(O)cc(O)c4-c4cc3ccc4O)[C@H](O)c3ccc(c(Cl)c3)Oc3cc2cc(c3O[C@@H]2O[C@H](CO)[C@@H](O)[C@H](O)[C@H]2O[C@H]2C[C@](C)(N)[C@H](O)[C@H](C)O2)Oc2ccc(cc2Cl)[C@H]1O	0.7	0.0085
43	CS(=O)(=O)CS(=O)(=O)NNc1ncc(C(F)(F)F)cc1Cl	2.5	-0.88
44	COc1cc(C2N=C(N)Nc3nc4ccccc4n32)cc(OC)c1OC (stereo not given)	-0.4	nt
45	NC1=NC(=O)CC(C(=O)NCCc2ccccc2)S1 (stereo not given)	0.4	-0.711
46	CCCCN(CC)S(=O)(=O)c1cccc2cccnc12	0.3	-0.669
47	O=C(c1cc(C2CC2)on1)N1CCN(C(c2ccccc2)c2ccccc2)CC1	1.3	-1.11
48	COc1ccc(S(=O)(=O)N2CCN(C(=O)N(C)C)C2c2ccccc2)cc1 (stereo not given)	2.5	-0.51
49	N#CC(C#N)=Cc1ccc(OCc2ccsc2C#N)cc1	1.7	-0.201
50	Cc1ccc(NCc2c(C)[nH]c3ccccc3c2=O)cc1C	-1.1	-0.433
51	CNc1nc(OC)nc(N2CCOCC2)n1	2.3	-0.14
52	COc1ccc(N/C=C/C(=O)C(C)(C)C)cc1	0.0	0.922
53	CCNc1nc(SCC(=O)OC)nc(N(C)C)n1	1.6	0.236
54	c1cncc(N=c2scc(-c3cccs3)n2C2CCCC2)c1	-0.4	nt
55	CCOC(=O)c1cnc(=S)[nH]c1C(F)(F)F	2.1	nt
56	CCOC(=O)c1ccc(N2Cc3cc(C)c(C)cc3C2)cc1O	2.4	-0.0855
57	O=C(O)c1ccc(O)c(-n2c(=O)c3cc4c(=O)n(-c5cc(C(=O)O)ccc5O)c(=O)c4cc3c2=O)c1	1.6	-0.387
58	COc1cc(OC)c2nc(C)c3c(c2c1)CN(C(=O)Nc1ccccc1)C3	2.8	nt
59	CCN=C1S/C(=C\c2ccc(C(=O)OC)cc2)C(=O)N1CC	1.9	-0.302
60	O=C(O)CCN1C(=O)Cc2ccccc2C1=O	4.6	nt

# Two of the compounds above, in transposed form:
60	O=C(O)CCN1C(=O)Cc2ccccc2C1=O
41	CC1=NN(C(=O)c2ccccc2)C(C)(NN(C)c2ccccc2)C1 (stereo not given)
Screen / compound no.	60	41
Ab BasE inh	4.6	2.3
KSHV LANA nucl	nt	-0.418

# Additional results.
no.	Compound	Ab BasE inh	KSHV LANA nucl
61	Cc1cc(C)n2nc(SCC(=O)NCCC3=CCCCC3)nc2n1	-0.9	-0.516
62	C/C(N)=C(/C#N)C(=O)CSc1cc(Cl)ccc1Cl	2.1	nt
63	COc1cccc(-n2cc(C(=O)N3CCN(C(=O)c4ccco4)CC3)c3ccccc3c2=O)c1	0.5	-0.891
64	CCCCn1c(C2CC2)nc2cc(S(=O)(=O)N3CCOCC3)ccc21	-0.6	nt
65	CCOC(=O)CNc1ncc(C(F)(F)F)cc1Cl	nt	-0.371
66	O=S(=O)(Cc1ccccc1)Nn1cnnc1	1.0	nt
67	O=C(c1cc(=O)c2ccccc2o1)N1CCN(S(=O)(=O)/C=C/c2ccccc2)CC1	1.4	nt
68	NS(=O)(=O)c1ccc(CNC2=NCCCCC2)cc1	1.0	nt
69	CCOc1ccc2nc(SCc3cc(=O)oc4cc(O)ccc34)[nH]c2c1	3.5	nt
70	O=C(O)Cn1c(P(=O)(O)c2ccccc2)nc2ccccc21	0.0	nt
71	CC(C)CN(CC(C)C)C(=O)Cn1nc(C(=O)O)c2ccccc2c1=O	1.8	nt
72	CCN(CC)c1ccc(C(=O)NN=C2C3CC4CC(C3)CC2C4)cc1	1.6	nt
73	CC(SC1=NS(=O)(=O)c2ccccc21)C(=O)O (stereo not given)	0.2	nt
74	CC(C(=O)O)n1nc(-c2ccccc2)c2ccccc21 (stereo not given)	1.4	0.477
75	c1ccc(CSc2ncccn2)cc1	-5.8	1.61
76	Cc1ccc(CSc2nnnn2-c2ccccc2)cc1	0.8	-0.316
77	O=C(N/N=C\c1ccco1)c1ccc(S(=O)(=O)N2CCCCCC2)cc1	-0.1	-0.118
78	CCOC(=O)C1CCN(C(=O)c2ccccc2SCCOC)CC1	-4.6	1.67
79	O=C(Oc1ccccc1)c1ccco1	-1.9	0.321
80	c1ccc(CCCN2CCN(Cc3ccccc3)CC2)cc1	4.3	0.0005
81	COc1ccc(Br)c(C(=O)Nc2c(C)nc3nc[nH]n3c2=O)c1	0.0	-0.707
82	Cc1cccc(NC(=S)NC(=O)/C=C/c2ccco2)c1	-2.0	1.23
83	CN(C)C(=S)Nc1ccc2c(c1)OCCO2	2.3	-0.371
84	CN(C)/C=C1\SC(=O)N(c2ccccc2)C1=O	1.4	nt
85	CCCCOc1ccc(C(=O)NCC(=O)NC2CC2)cc1	-1.1	nt
86	O=c1[nH]cc(N2CCN(Cc3ccccc3)CC2)c(=O)[nH]1	2.7	nt
87	O=C(Oc1ccc2cc(OC(=O)c3ccccc3)ccc2c1)c1ccccc1	0.2	nt
88	Cc1ccc2cccc(OC(=O)c3ccc(Br)o3)c2n1	-8.1	1.42
89	S=c1[nH]nc(C2COc3ccccc3O2)o1 (stereo not given)	2.9&-1.8	-0.361
90	N#CCCn1c(SCc2ccc(C#N)cc2)nc2ccccc21	-1.9	nt

# Three compounds from above, sorted by formula weight, ascending.
no.	Compound	Ab BasE inh	KSHV LANA nucl
89	S=c1[nH]nc(C2COc3ccccc3O2)o1 (stereo not given)	2.9&-1.8	-0.361
66	O=S(=O)(Cc1ccccc1)Nn1cnnc1	1.0	nt
61	Cc1cc(C)n2nc(SCC(=O)NCCC3=CCCCC3)nc2n1	-0.9	-0.516

# Next section
no.	Compound	Ab BasE inh	KSHV LANA nucl
91	COc1ccc(Cc2c(Cl)nc(SC)nc2NN)cc1	2.3	-0.335
92	COc1ccc(NCc2cc(=O)oc3cc(NC(C)=O)ccc23)cc1	-3.4	nt
93	COc1cccc(OC)c1C(=O)NNc1ncc(C(F)(F)F)cc1Cl	-0.7	0.428
94	N#CC(C#N)=C1c2cc(S(=O)(=O)NCCO)ccc2-c2ccc(S(=O)(=O)NCCO)cc21	2.6	nt
95	NC(=O)C[n+]1cccc2ccccc21	3.5	nt
96	O=C(NC1CCCCCC1)c1ccccc1	1.6	-0.11
97	CCN(CC)C(=O)c1ccc(C(=O)c2cc(OC)ccc2OC)cc1	0.4	0.104
98	CC(C)(C)n1ncc2c(=O)n(CC(=O)NCc3ccc(F)cc3)cnc21	2.9	0.156
99	CC1(C)CCc2cc(-c3ccn(S(=O)(=O)c4ccc(Cl)cc4)n3)ccc2O1	0.2	nt
100	CC(=Nc1ccc(C)cc1C)c1sc2ccccc2c1O	-4.4	nt
101	CC12C(=O)N(c3nccs3)C(=O)C1C1C=CC2C1 (stereo not given)	3.2	0.037
102	CC(C)NC(=O)CSc1nnc(N)s1	1.6	nt
103	Cc1nc2ccc(CCC(=O)O)cc2[nH]1	-0.9	-0.212
104	CCOc1ccc(NC(=O)CSC2=C(C#N)C(c3cccs3)C3=C(CC(C)(C)CC3=O)N2)cc1 (stereo not given)	-0.6	nt
105	Cc1ccc(S(=O)(=O)N(CCC(=O)N2CCOCC2)c2ccccc2)cc1	-5.1	nt
106	O=C(Cn1nnc(-c2cccnc2)n1)N(c1ccccc1)c1ccccc1	-0.8	-0.587
107	Cc1ccc2c(CN3CCNC(=O)C3)cc(=O)oc2c1C	1.3	nt
108	CCOc1cc(CO)ccc1OCC(=O)Nc1ccc(C)c(Cl)c1	-4.7	-0.0165
109	O=C(c1ccncc1)N1c2ccccc2Sc2ccccc21	0.3	nt
110	Cc1cc(NC(=O)c2noc3c2CC(C(C)(C)C)CC3)nn1Cc1ccc(Cl)cc1 (stereo not given)	0.6	-0.81
111	CC(=O)Nc1cccc(C(=O)OCC(=O)c2cc3ccccc3o2)c1	-15.3	nt
112	COc1ccc(S(=O)(=O)Nn2cnnc2)cc1	-0.8	-1.11
113	O=C(CNC1Cc2ccccc2C1)Nc1ccccc1N1CCOCC1	0.2	-1.62
114	CCc1c(C)sc(NC(=S)n2cc(C)cn2)c1C(=O)OC	2.8	-0.845
115	COc1cc(=O)n(C)c2c(OC(C)=O)cccc12	-0.9	0.168
116	O=C(NCCN1CCOCC1)Nc1ccc(Cl)cc1Cl	1.6	-0.597
117	O=C(Cc1c(F)cccc1Cl)Nc1cc(C(=O)N2CCCC2)ccc1N1CC2CC(C1)c1cccc(=O)n1C2 (stereo not given)	-0.9	-0.235
118	CCNC(=O)COc1ccccc1Cl	-0.7	0.353

# Screening data: PubChem BioAssay, ICCB-Longwood Screening Facility, Harvard Medical School

# The list is partial; the hit share may differ from the screen's.
